# RN4220 kill: growth inhibition of S. aureus RN4220, primary screen, OD600. 16 h. inhibition, % (no concentration beside the values). hit rate 0.33% among 330,000;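 active = z-score of -3 or lower and OD600 up to 0.18 on both plates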;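 note: plate controls were untreated cells for no effect and reference antibiotic for full effect; stock transfer was 100 nL into about 80 µL; one replicate is shown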
# ugtP null kill: growth inhibition of ugtP-null S. aureus, primary screen, RN4220 ugtP deletion, OD600 | 16 h; some inactives read as strong as hits | growth inhibition, % (no concentration beside the values) | AID 1259309, 2017 | hit rate 0.54% among 330,000;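 active = z-score under -3 and OD600 up to 0.15 on both plates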;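 note: plate controls were untreated wells for no effect and antibiotic for full effect; wells of about 80 µL received 100 nL stock; the first replicate is given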
# Mtb hypoxia rep: PubChem AID 1159583 | fluorescence inhibition, % (no concentration beside the values) | hit rate 0.1% among 300,000 | M. tuberculosis hypoxia-regulated fluorescent reporter, fluorescence;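 active = 35 to 45% if threefold the growth effect, above 45% if 1.5-fold the growth effect; inactive = the rest, general growth blockers included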;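 note: wells of about 50 µL received 100 nL stock; 0% = vehicle wells and 100% = reference inhibitor wells; whole bacteria with a GFP reporter of the hypoxia response; strong numbers were not always called active; many hits fall short of the cut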
# PrP UTR inh: inhibition of PrP 5' UTR reporter expression | cell-based PrP 5' UTR mRNA reporter, plate reader | inhibition, % (test concentration not listed) | hit rate 0.35% among 340,000;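 active = every replicate at 50% or more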;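 note: 0 = median of the neutral control wells; tested in H4 reporter cells; numbers are from one replicate; inactives centre near -14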
# Autofluor counter: flagged as autofluorescent in microsphere protease counterscreen. fluorescence intensity (no concentration beside the values). hit rate 3.1% among 360,000. compound autofluorescence counterscreen, microsphere flow cytometry; active compounds read high;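 active = at least 3 SD above the mean of all compounds, about 16000 in these data; inconclusive = too few beads counted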;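 note: 100 nL of 1 mM stock went into each well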
# BJeLR lethal: MLPCN primary cell-based screen for lethality selective to Ras in HRASV12 cells; BJeLR (HRASV12) viability, CellTiter-Glo ATP luminescence, 48 h; reference of the scale not given here; inhibition, % (test concentration not listed); hit rate 0.17% among 300,000;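 active = replicate mean above 50%; inconclusive = above 50% but judged a plate artefact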;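 note: 50 nL library stock added to about 25 µL; numbers are from one replicate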
# Mtb hypoxia rep growth: second read-out of Mtb hypoxia rep, no call of its own (marks repeat the call); growth inhibition, %; measured here: M. tuberculosis growth (absorbance);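 0% = vehicle and 100% = reference antibiotic; read after six days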
# Active calls of the source: *; u = inconclusive; x = not tested or not shown.
smiles	RN4220 kill	ugtP null kill	Mtb hypoxia rep	Mtb hypoxia rep growth	PrP UTR inh	Autofluor counter	BJeLR lethal
COC(=O)c1c(NC(=O)c2ccco2)sc(C(=O)N2CCCC2)c1C	9.8	-9	3	2	-8	10210	10
O=C(NCc1ccc(Cl)cc1)C1CCN(C(=O)c2ccc(Cl)cc2)CC1	3.1	11	4	-2	-11	u	x
O=S1(=O)N[C@@H](CC2CCCCC2)COc2cc(Br)ccc21	-2.3	-5	8	2	-18	4167	x
COc1ccc2oc(=O)cc(CN(C)Cc3ccccc3)c2c1	2.5	7	-4	-9	-17	3313	-4
Cc1cc(C)nc(NC2=NCCN2C(=O)NC2CCCCC2)n1	0.3	-6	x	x	-18	4594	-4
COc1ccc(CCNC(=O)c2ccccc2NC(=O)CN2CCN(c3ccccc3O)CC2)cc1	0.4	-13	9	9	-15	5042	x
O=C(Nc1ccccc1F)c1ccc2snnc2c1	3.0	-1	12	10	-37	5579	2
CC(NC(=O)CCSCCC(=O)NC(C)c1ccccc1)c1ccccc1 (stereo not drawn)	-0.2	5	3	-8	-8	2561	-11
CCOC(=O)CNC(=S)N(CCCN1CCCCC1)Cc1cccs1	2.0	4	-4	-7	-28	2565	-6
O=S(=O)(NCC(O)c1ccccc1)c1ccc(-c2ccccn2)s1 (stereo not drawn)	4.1	9	5	-4	-24	5636	-9
O=C(c1ccc(F)cc1)C(C(=O)N1CCCCC1)n1ccccc1=O (stereo not drawn)	5.7	11	19	7	-16	3321	-1
COc1ccc(NC(=O)CSc2nnc(Cn3c(=O)sc4ccccc43)n2C)cc1OC	1.4	2	x	x	-10	5375	x
CCOc1ccc(NC(=O)CC2C(=O)N(c3ccc(OCC)cc3)C(=S)N2C2CC2)cc1 (stereo not drawn)	4.7	4	7	8	-21	6002	-1
O=C(Nc1cc(S(=O)(=O)N2CCCCC2)ccc1Cl)C1=NN(c2ccccc2)C(=O)CC1	2.6	-8	-2	-1	-33	5559	6
Cn1c(SCC(=O)Nc2ccc(N3CCOCC3)cc2)nnc1-c1ccco1	1.9	4	2	-2	-30	3751	-14
O=C(Cn1cnc(Cl)c1Cl)c1ccc(F)cc1	0.0	4	0	15	-26	2682	-2

# A different layout for some results above:
# Results follow in this order: RN4220 kill, ugtP null kill, Mtb hypoxia rep, Mtb hypoxia rep growth, PrP UTR inh, Autofluor counter, BJeLR lethal
COC(=O)c1c(NC(=O)c2ccco2)sc(C(=O)N2CCCC2)c1C
  9.8, -9, 3, 2, -8, 10210, 10
O=C(NCc1ccc(Cl)cc1)C1CCN(C(=O)c2ccc(Cl)cc2)CC1
  3.1, 11, 4, -2, -11, u, x
O=S1(=O)N[C@@H](CC2CCCCC2)COc2cc(Br)ccc21
  -2.3, -5, 8, 2, -18, 4167, x
COc1ccc2oc(=O)cc(CN(C)Cc3ccccc3)c2c1
  2.5, 7, -4, -9, -17, 3313, -4
Cc1cc(C)nc(NC2=NCCN2C(=O)NC2CCCCC2)n1
  0.3, -6, x, x, -18, 4594, -4
COc1ccc(CCNC(=O)c2ccccc2NC(=O)CN2CCN(c3ccccc3O)CC2)cc1
  0.4, -13, 9, 9, -15, 5042, x
O=C(Nc1ccccc1F)c1ccc2snnc2c1
  3.0, -1, 12, 10, -37, 5579, 2
CC(NC(=O)CCSCCC(=O)NC(C)c1ccccc1)c1ccccc1 (stereo not drawn)
  -0.2, 5, 3, -8, -8, 2561, -11
CCOC(=O)CNC(=S)N(CCCN1CCCCC1)Cc1cccs1
  2.0, 4, -4, -7, -28, 2565, -6
O=S(=O)(NCC(O)c1ccccc1)c1ccc(-c2ccccn2)s1 (stereo not drawn)
  4.1, 9, 5, -4, -24, 5636, -9
O=C(c1ccc(F)cc1)C(C(=O)N1CCCCC1)n1ccccc1=O (stereo not drawn)
  5.7, 11, 19, 7, -16, 3321, -1
COc1ccc(NC(=O)CSc2nnc(Cn3c(=O)sc4ccccc43)n2C)cc1OC
  1.4, 2, x, x, -10, 5375, x
CCOc1ccc(NC(=O)CC2C(=O)N(c3ccc(OCC)cc3)C(=S)N2C2CC2)cc1 (stereo not drawn)
  4.7, 4, 7, 8, -21, 6002, -1
O=C(Nc1cc(S(=O)(=O)N2CCCCC2)ccc1Cl)C1=NN(c2ccccc2)C(=O)CC1
  2.6, -8, -2, -1, -33, 5559, 6

# New compounds follow.
smiles	RN4220 kill	ugtP null kill	Mtb hypoxia rep	Mtb hypoxia rep growth	PrP UTR inh	Autofluor counter	BJeLR lethal
O=C(Nc1ccccc1)c1sc(Cl)nc1-c1ccccc1	4.5	5	10	7	-19	2620	1
CCCCNC(=S)NC1CCCC1	4.6	1	x	x	-20	2672	-1
CC(=O)c1ccc(NC(=O)CSc2nc3nn(-c4ccccc4)c(=O)c-3c3n2CCCCC3)cc1	7.2	-3	8	10	-14	3453	x
Cc1ccc(OC(=O)C23CC4CC(CC(C4)C2)C3)c(C)n1	2.9	4	2	5	-11	2004	-2
COc1ccc(CN=CC2=C(O)CC(C)(C)CC2=O)cc1	1.9	3	1	1	-16	24658*	-2
COc1cc(OC)cc(C(=O)n2cnnc2N)c1	2.8	4	1	2	-21	u	-11
Cc1nnc2sc(SCc3ccc(Br)cc3)nn2c1=O	8.1	2	16	6	-24	3997	10
COc1ccc(C2(C(=O)c3ccccc3)C(=O)c3ccccc3C2=O)cc1	2.0	11	10	-2	-24	3992	10
NC(=O)CSc1nnc2ccc(-c3ccc(F)cc3)nn12	2.3	5	12	-2	-13	3812	13
CC1(C(=O)O)CCC(C(=O)Nc2cccc(F)c2)C1(C)C (stereo not drawn)	3.1	0	-12	-9	-7	3108	-7
Cc1ccc(CNC(=O)Cc2ccc(NC3=NC4CS(=O)(=O)CC4S3)cc2)cc1 (stereo not drawn)	8.7	9	3	2	-9	6848	-10
COc1ccc(Nc2ncnc3ccc(Br)cc23)c(OC)c1	4.6	-4	-4	-3	72*	3977	25
Cc1nc(CSc2nnc(N)s2)cs1	2.7	1	4	1	-13	4550	0
CN(N=Cc1ccc(O)cc1O)c1nc(-c2ccccc2)cc(-c2ccccc2)n1	39	48	-5	-2	x	x	x
CCn1nnc2cc(C(=O)Nc3ccc(C(=O)OC(C)C)cc3)ccc21	3.8	6	6	10	-13	4285	x
COc1ccc(N2CCN(C(=O)c3ccc(N(C)S(=O)(=O)c4ccc(OC)cc4)cc3)CC2)cc1	2.4	7	4	5	-26	4559	7
NC(=S)Nc1cc(Cl)cc(Cl)c1	2.9	2	21	24	x	4542	3
Fc1ccccc1/C=N/Nc1nn[nH]n1	x	x	x	x	-30	2938	-2
O=C(CCCc1c[nH]c2ccccc12)NCc1ccccc1F	4.4	14	-1	-12	-13	4320	-15
O=C(Cn1cnc2ccccc2c1=O)NCCC(=O)N1CCN(c2ccccc2)CC1	0.7	-2	5	11	-18	22618*	-3
CC(C)(C)NC(=O)C(c1cccs1)N(CC1CCCO1)C(=O)Cn1nnc(-c2cccs2)n1 (stereo not drawn)	2.9	-4	1	-2	-25	8341	6
COc1ccc(CNC(=O)C2CCCN(S(=O)(=O)N3CC(C)CC(C)C3)C2)c(OC)c1 (stereo not drawn)	-0.7	0	5	5	-14	5119	-5
COC(=O)c1sccc1NC(=S)N1CCCCC1	5.2	4	5	5	-9	3896	-8
CC(C)(C)C(=O)N1CCN(c2nc3ccccc3o2)CC1	2.5	2	7	2	-15	4605	-14
COC(=O)[C@@]12CCCCN1[C@H](c1ccc(-c3cccc(Cl)c3)c(OC)c1)[C@@H]1C(=O)N(C)C(=O)[C@@H]12	x	x	x	x	-6	3579	-15
CCCCc1nc2sc3c(=O)n(N)cnc3c2c2c1CCCC2	4.5	2	9	5	-17	2534	-6
Cc1ccccc1-n1c(O)c(/C=C2/C(c3ccccc3)=Nc3ccccc32)c(=O)[nH]c1=O	6.7	-22	6	10	-73	1715	11
CCOC(=O)N/N=C\c1ccc(-c2cc(Cl)ccc2Cl)o1	x	x	x	x	3	2528	3
COC(=O)C(O)(c1c[nH]c2ccccc12)C(F)(F)F (stereo not drawn)	4.8	5	7	12	7	5885	-3
O=C(NCC(=O)N1CCN(S(=O)(=O)c2ccc3c(c2)OCCO3)CC1)c1ccccc1Cl	2.9	5	10	0	-16	6259	x
Cc1ccc(NC(=O)CN2C(=O)NC(Cc3ccccc3)C2=O)cc1 (stereo not drawn)	-1.7	-5	x	x	5	4973	-7
C[N+](C)(C)CCCCCCC(=O)/C=N/O	x	x	x	x	-14	2057	3
Cc1cccc(/C=C2\Sc3ccc(C(=O)N4CCOCC4)cc3N(C)C2=O)c1	5.9	-6	-2	7	4	5491	-7
COc1cccc(OCC(Cn2cnc3ccccc32)OC(C)=O)c1 (stereo not drawn)	1.4	2	8	4	-20	2652	-5
CC(=NNC(=O)c1ccccc1O)c1ccc(NC(=O)Cc2ccccc2)cc1	7.8	13	-4	1	x	x	x
C=CCn1c(SCC(=O)N2CCc3ccccc3C2)nnc1-c1ccncc1	4.3	7	3	3	-1	2072	-13
COc1ccc(CCn2c(-c3ccccc3)nc3c(c(=O)c4ccccc4n3C)c2=O)cc1	2.9	-5	-3	3	x	x	-7
c1ccc(CSc2n[nH]c(-c3ccco3)n2)cc1	-2.9	12	13	4	-33	3227	-10
COc1ccc2nc(NC(=O)Cn3cnc4c(=O)n(C)c(=O)n(C)c43)sc2c1	-2.1	0	15	22	-9	4054	-1
COc1ccc(OCC(=O)NN=Cc2cccc3cccnc23)cc1	0.9	2	-6	2	x	x	x
COc1cc(NC(=O)CCCc2c[nH]c3ccccc23)cc(OC)c1	-2.4	-5	2	6	7	2014	2
CCOc1ccc(C(=O)NC(=S)Nc2ncccc2C)cc1[N+](=O)[O-]	7.7	4	-24	7	-47	2003	5
Cc1cccc(C)c1NC(=O)C1CSC2(C)CCC(=O)N12 (stereo not drawn)	4.7	10	-2	-3	-11	u	-5
COc1ccc(OC)c(CNC(=O)CCN2C(=O)COc3ccccc32)c1	0.3	-6	-8	1	-28	10924	-2
N#CC(C#N)=CC1=C2OC(c3ccccc3)=CC(c3ccccc3)=C2CCC1	4.1	-2	8	2	3	8949	2
COc1ccc(S(=O)(=O)NNC(=O)c2cccs2)cc1	6.5	9	4	9	-8	5266	3
Cc1cc(=O)oc2c(C)c(OC(C)C(=O)N3CC[C@@]4(O)CCCC[C@H]4C3)ccc12 (stereo partly drawn)	5.3	9	x	x	-21	4299	-5
CC(=O)NNc1nc(-c2ccc(C)cc2)cs1	-0.9	-3	6	1	-28	4181	3

# 2 compounds picked at random from those above, as already listed:
smiles	RN4220 kill	ugtP null kill	Mtb hypoxia rep	Mtb hypoxia rep growth	PrP UTR inh	Autofluor counter	BJeLR lethal
COc1cc(NC(=O)CCCc2c[nH]c3ccccc23)cc(OC)c1	-2.4	-5	2	6	7	2014	2
CC(=O)NNc1nc(-c2ccc(C)cc2)cs1	-0.9	-3	6	1	-28	4181	3

# (continued)
smiles	RN4220 kill	ugtP null kill	Mtb hypoxia rep	Mtb hypoxia rep growth	PrP UTR inh	Autofluor counter	BJeLR lethal
COc1ccccc1OCCCn1cc(C(=O)c2ccco2)c2ccccc21	3.1	-29	2	5	-57	4170	-15
COC(=O)c1cccc(NC(=O)c2cccnc2C(=O)O)c1C	6.5	-2	4	-2	-14	3408	4
Cc1ccc(-n2c(C)cc(/C=C3/C(=N)N4C(c5ccccc5)=CSC4=NC3=O)c2C)cc1	-3.4	13	-14	-2	-28	2252	6
O=C(NCc1ccccc1)C1=C[C@@H](c2coc3ccccc3c2=O)C[C@@H](OCCCCO)O1	x	x	x	x	-35	3639	3
Cc1cccc(C)c1NC(=O)CNC(=O)c1cnccn1	1.4	0	6	8	-13	3017	x
CC(C)[C@H](NC(=O)c1ccc(F)cc1)C(=O)N(C)Cc1cccs1	9.3	4	0	3	-13	x	x
CN1CCN(C(=O)c2ccccc2NC(=O)CCN2C(=O)c3ccccc3C2=O)CC1	-0.8	2	x	x	1	4872	2
N#Cc1ccc(C(=O)OCC(=O)N2CCN(C(=O)c3ccco3)CC2)cc1	6.3	2	14	9	-9	3743	x
O=C(c1ccccc1)c1ccc(OC(=O)N2CCCC2)cc1	3.3	2	10	8	-59	3656	-9
CC(O)CNCc1ccc(Cl)cc1Cl (stereo not drawn)	2.9	5	12	1	-18	2043	0
O=C(Cn1c2ccccc2c(=O)c2ccccc21)Nc1ccccc1F	1.6	-3	1	11	-6	2108	7
CN(CCc1ccccc1)Cc1ccccc1[N+](=O)[O-]	-11	-3	14	7	-33	2929	-14

# Outcome played no part in choosing rows. About 4% of those tested had a hit in this group.
